miR-21 reporter = miR-21 reporter, rising signal | HeLa miR-21 FLuc reporter, luciferase, 48 h | Potency, µM (doses to about 38.3 µM), inactives show at the top dose reporter change, positive = more light | 340,000 tested, under 10 active; active = well fitted rising curve with a large enough effect; inconclusive = small, poorly fitted or top-dose-only effect; inactive = no such curve, though single readings can be large or run the other way;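 also: % of control where 0% means no effect; miR-21 action dims this reporter so a rising signal means less miR-21 action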
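Using DMEM plus 10% FBS, HeLa miR-21-FLuc cells are incubated with test compounds (final up to about 40uM) for 48 hours; firefly luciferase signal is then imaged following reagent-mediated lysis.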
Rango complex inh = inhibitors of Rango-importin beta complex formation; Q14974; Potency, µM (series often up to 92.2 µM), for the others: at the top dose inhibition of complex formation; AID 540263; Rango CFP/YFP FRET sensor + importin beta, 45 min; actives 0.031% (n = 340,000); active = rising FRET ratio curve, often small or poorly fitted; inconclusive = mostly compound fluorescence or quenching in the first reads; inactive = flat curves in all reads;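 also: potency is read from the fitted curve at half-maximal effect; 0% = DMSO wells and 100% = buffer wells lacking importin beta; nearly all actives have a fitted effect of over 15% in size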
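Inhibition scored from the CFP 486 nm/YFP 530 nm FRET ratio 45 min after adding 0.125 microM importin beta to 50 nM Rango biosensor preincubated 5 min with compound (room temperature, PBS with DTT, Tween-20, BSA). No-importin wells as positive control.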
GLA inh pH 4.5 = inhibitors of human alpha-galactosidase A at pH 4.5. activity change, negative = inhibition, % at 105 µM. purified enzyme, 4-MU-alpha-Gal fluorescence, pH 4.5. 230,000 tested, under 10 active. P06280; inconclusive = small, poorly fitted or top-dose-only inhibition, or a rising curve; inactive = flat fitted curve, though single readings scatter; no compound was filed as active;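 also: 0% = full activity with enzyme and -100% = basal without enzyme; dose as in the result columns while the protocol names 77 µM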
Target sequence (P06280 whole entry, looked up): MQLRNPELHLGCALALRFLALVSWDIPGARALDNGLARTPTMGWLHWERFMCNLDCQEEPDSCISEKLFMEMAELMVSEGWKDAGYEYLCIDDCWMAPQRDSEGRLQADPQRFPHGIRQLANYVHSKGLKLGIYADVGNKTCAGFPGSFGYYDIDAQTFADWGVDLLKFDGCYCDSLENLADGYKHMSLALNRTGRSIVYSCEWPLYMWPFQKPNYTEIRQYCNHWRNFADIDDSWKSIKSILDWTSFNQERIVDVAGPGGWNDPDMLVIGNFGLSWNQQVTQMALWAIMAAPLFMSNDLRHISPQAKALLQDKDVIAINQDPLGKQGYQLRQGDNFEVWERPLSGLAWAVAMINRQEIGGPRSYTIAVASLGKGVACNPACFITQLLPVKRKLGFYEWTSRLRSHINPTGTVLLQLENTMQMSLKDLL
Rango dissoc inh = inhibitors of RanGTP-induced Rango-importin beta complex dissociation. Potency, µM (highest dose often 46.1 µM), for the others: top-dose activity change, negative = inhibition. Biochemical FRET Rango-importin beta, RanGTP-induced dissociation. AID 540253. actives 0.071% (n = 340,000). O95149+P62826; active means falling FRET ratio curve, often poorly fitted, with flat reads before Ran was added; inconclusive means other falling curves, or compound fluorescence or quenching; inactive means flat or rising ratio curve;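 also: potency is read from the fitted curve at half-maximal effect; % of control where 0% means no effect; nearly all actives have a fitted effect of over 45% in size; -100% = wells without RanGTP and RCC1; the record marks most hits as doubtful in a second field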
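FRET read at 45 min, room temperature: inhibitors block the CFP/YFP signal rise when RanGTP (0.6 uM Ran, 2 mM GTP, 0.2 uM RCC1) frees Rango (0.1 uM) from importin beta (0.25 uM). Pre-read after 5 min compound exposure flags interference.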
* hit, by the source's call; ? = inconclusive; . = no result given. A portion of the library; count on the stated rates, not on these rows.

SMILES	miR-21 reporter	Rango complex inh	GLA inh pH 4.5	Rango dissoc inh
CCOc1ccccc1NC(=O)CSc1n[nH]c(=O)n1-c1ccccc1	.	-0.1%	.	-0.5%
Cc1cc2c(NC(=O)Nc3ccccc3)cccc2nn1	-7.4%	2.2%	3.9	-0.2%
CCOCCCNC(=O)Cc1c(C(=O)O)[nH]c2ccc(Cl)cc12	2.1%	4.9%	3.4	0.6%
CCn1cc(/C=C/C(=O)Nc2c(C)nn(Cc3ccccc3)c2C)cn1	4.1%	2.1%	-5.6	5.3%
COc1ccc([N+](=O)[O-])cc1NC(=O)CC(c1ccccc1)c1ccccc1	17.9%	-3.4%	-16.1	-8.9%
COc1ccc(C(=O)NCc2ccc3c(c2)OCO3)cc1S(=O)(=O)N1CCCC1	.	2.1%	.	-0.5%
COc1cccc(N2CCN(C(=O)C3CCC(=O)N(C4CCCCCC4)C3)CC2)c1 (stereo not given)	10.3%	5.7%	.	-4.2%
Cc1cccc(C)c1NC(=O)CSc1nnnn1-c1ccc(C(=O)O)cc1	-1.8%	-0.5%	6.9	1.2%
COc1ccccc1NC(=O)CSc1nc(O)cc(=O)n1C	-4.2%	-4.4%	-4.5	-2.9%
O=Nc1c(-c2ccccc2)[nH]n(-c2ccccc2)c1=O	10.3%	0.5%	.	-3.2%
CCOc1ccccc1-n1c(SCC(=O)Nc2ccccc2C(=O)O)nc2ccccc2c1=O	-46.5%	-2.3%	.	1.7%
COc1cc(OC)cc(-c2cc3nc4c(c(N5CCN(c6ncccn6)CC5)n3n2)CCCC4)c1	-19.1%	0.0%	8.7	0.2%
NNC(=O)CS(=O)(=O)CS(=O)(=O)CC(=O)NN	-3.3%	-3.9%	-1.6	-4.0%
CCn1cc(C(=O)NC(=S)Nc2ccccc2[N+](=O)[O-])cn1	-29.9%	-2.3%	.	8.0%
COc1cccc(/C=C(\CC(=O)O)c2nc3ccccc3s2)c1	-0.5%	1.1%	8.4	12.3%
O=C(NNC(=S)Nc1ccc(Cl)cc1)c1cccs1	-56.4%	13.2%	0.0	2.2%
CCSc1ccc([C@@H]2[C@H]3C(=O)N(C)C(=O)[C@H]3[C@]3(C(=O)OC)CCCCN23)cc1	.	-0.3%	.	0.0%
COc1cc(SC)ccc1C(=O)Nc1cccc(C2OCCCO2)c1	-58.3%	3.3%	.	?
CNC(=O)CNC(=O)Nc1ccc(C)cc1	-4.5%	-0.9%	-4.1	25.4%
Cc1cc(=O)[nH]c(N2CCN(c3ccc(Cl)cc3)CC2)n1	.	4.5%	.	-6.9%
Cc1cccc(C)c1NC(=O)CSc1nnc(C)n1CC1CCCO1 (stereo not given)	-2.2%	-0.7%	4.3	-11.5%
O=C(Cc1ccc(F)cc1)N[C@@H]1c2ccccc2CC[C@@H]1OCc1ccccc1	.	1.9%	.	-13.2%
CC(C)C(NS(=O)(=O)c1ccccc1)C(=O)NC1CCCC1 (stereo not given)	-1.8%	-0.5%	.	-9.2%
CC(C)=CCN1CCN(Cc2ccc(C)s2)CC1CCO (stereo not given)	2.6%	1.2%	7.9	9.1%
Cc1cc(C)c(S(=O)(=O)NCCC2CCCN2C)c(C)c1 (stereo not given)	-2.1%	-3.1%	-4.0	-0.3%
SMILES	miR-21 reporter	Rango complex inh	GLA inh pH 4.5	Rango dissoc inh
CC(C)=CC(=O)OCC(=O)Nc1cc(C)cc(C)c1	-1.2%	-0.8%	10.7	1.0%
O=C(c1ccc(F)cc1)N(c1ccccn1)C1CCCCC1	-1.9%	0.2%	2.5	-20.2%
COc1ccc(/C=C/C(=O)NCC(=O)N/N=C(\C)Cc2ccccc2)cc1	0.0%	-0.1%	-5.0	0.3%
O=C(/C=C/c1ccccc1)Nc1sc2c(c1C(=O)O)CCC2	-1.3%	?	-0.7	1.1%
CN(C)c1ccc(CCc2ccc(N)cc2)cc1	.	0.7%	.	5.8%
Cc1cc(C)c2c(NC(=O)CCl)nn(C)c2n1	28.7%	0.4%	5.2	13.7%
CCNC(=S)N/N=C/c1ccc(C#N)cc1	7.9%	2.4%	8.6	-1.7%
C[C@H](NC(=O)c1nc[nH]c1C(=O)N[C@@H](Cc1ccccc1)C(=O)OCc1ccccc1)C(=O)OCc1ccccc1	6.1%	-1.7%	.	5.1%
Cc1cccc(NC(=O)CC2NC3CCCCC3NC2=O)c1 (stereo not given)	-13.6%	-0.6%	2.5	4.0%
Cc1ccc(NC(=O)C(C)c2ccc(-c3ccccc3)c(F)c2)c(C)c1 (stereo not given)	1.4%	-1.2%	-3.9	-0.2%
CC(=O)Nc1ccc(Nc2ccc(S(=O)(=O)C(F)(F)F)cc2[N+](=O)[O-])cc1	-9.1%	0.1%	2.3	0.5%
O=C(Cn1nnc(-c2cccs2)n1)N1c2ccccc2Sc2ccc(C(F)(F)F)cc21	.	3.4%	.	-13.5%
COc1c(O)ccc(/C=N/NC(=O)c2ccc3c(c2)OCCO3)c1[N+](=O)[O-]	-40.2%	-3.5%	4.4	-5.3%
Cc1ccc2c(c1)S/C(=C/c1ccc[n+](CCO)c1)N2C	?	?	-13.3	-16.3%
COc1ccc(C(=O)CCC(=O)N2CCN(c3cccc(Cl)c3)CC2)cc1	11.2%	?	.	26.8%
CCOC(=O)[C@H]1[C@H]2COc3ccc(OC)cc3[C@@H]2N2C(=O)c3ccc(F)cc3NC(=O)[C@@]12C	.	-2.8%	.	-6.2%
CC1(C)Cc2c(cnn2-c2ccc(F)cc2)C(NC(=O)Cn2cncn2)C1 (stereo not given)	-3.5%	-2.1%	.	-7.8%
CCc1ccc(C(CNc2nc(C(F)(F)F)nc3ccccc23)N(C)C)cc1 (stereo not given)	20.4%	1.9%	.	-16.7%
O=C1Nc2ccccc2C1C(C[N+](=O)[O-])c1ccccc1 (stereo not given)	0.0%	-3.7%	.	19.4%
Cc1cc(OC(=O)C2CC2)c([N+](=O)[O-])c(=O)[nH]1	1.5%	0.1%	-5.0	19.9%
COc1ccc(CN2CCCC(C(=O)N3CCCCC3)C2)cc1 (stereo not given)	0.8%	-0.1%	.	14.2%
CCc1ccc(OCC(=O)Nc2ccc3oc(=O)ccc3c2)cc1	-5.2%	2.9%	.	-0.7%
COC(=O)c1ccc(Oc2nc(NC(C)C)nc(N(C)C)n2)cc1	-11.3%	1.9%	-2.7	5.9%
CN1CCN(S(=O)(=O)c2ccc(NC(=O)c3ccc(Br)o3)cc2)CC1	-10.3%	2.9%	-2.6	0.0%
COc1ccc(C(=O)N(CCN2CCOCC2)CC(=O)NC2CCCC2)cc1OC	0.8%	-2.3%	-2.1	21.7%
SMILES	miR-21 reporter	Rango complex inh	GLA inh pH 4.5	Rango dissoc inh
O=C(NCc1ccc2c(c1)OCO2)Oc1ccccc1	4.5%	0.9%	-6.4	-1.5%
COc1cccc(C(=O)Nc2cccc(-c3ccc(N4CCOCC4)nn3)c2)c1OC	.	-3.2%	.	-3.2%
Cc1ccc(C2(C)NC(=O)N(CC(=O)NC(=O)NC(C)C)C2=O)cc1 (stereo not given)	2.5%	-0.5%	.	-2.4%
CS(=O)(=O)c1ccc(Cl)c(NC(=O)CN2CCN(S(=O)(=O)/C=C/c3ccccc3)CC2)c1	.	0.6%	.	16.0%
O=C(C1CCCN(S(=O)(=O)c2cccc3cccnc23)C1)N1CCN(c2ccccc2F)CC1 (stereo not given)	-2.8%	1.1%	4.0	-8.5%
COc1ccc(-c2cc3ccc(F)cc3cn2)cc1	.	-0.9%	.	25.1%
COCCNC(=O)CN1C(=O)NC2(CCCc3cc(OC)ccc32)C1=O (stereo not given)	2.3%	1.4%	.	-1.9%
Cc1cc(=O)oc2cc(OCC(=O)Nc3ccc4[nH]c(=O)[nH]c4c3)ccc12	.	-1.8%	.	-3.7%
Cc1ccc(CSc2nnc(CCCCCNC(=O)OC(C)(C)C)o2)cc1	20.6%	-1.9%	-8.7	-9.1%
Cc1nn(C)cc1/C=C/C(=O)c1ccc(O)cc1	-77.9%	-2.0%	-3.2	4.9%
CCC1(COC(NC(=O)c2cccnc2)(C(F)(F)F)C(F)(F)F)COC1	-5.7%	-2.3%	-5.0	6.2%
Cc1ccc(/C=C/C(=O)OCC(=O)Nc2ccc3[nH]c(=O)[nH]c3c2)o1	.	2.5%	.	2.1%
O=C(CCCc1ccccn1)c1ccccc1	.	0.0%	.	-5.9%
COc1cc2c(cc1NC(=O)COC(=O)CNC(=O)c1ccccc1)oc1ccccc12	-34.6%	-1.1%	4.5	-10.8%
O=C(NNC(=O)C1[C@H]2CCCC[C@@H]12)Nc1cccc2ccccc12 (stereo not given in full)	-0.7%	-1.8%	8.8	-1.2%
COC(=O)c1ccc(N2CN=C(c3ccc(C)cc3)NC2=S)cc1	-9.8%	0.1%	-9.5	3.9%
Clc1ccc(CNCc2cccs2)c(Cl)c1	-3.5%	-3.0%	-10.3	1.9%
COc1ccc(-c2cc(C(=O)N/N=C(\C)c3ccco3)c3ccccc3n2)c(OC)c1	11.1%	1.5%	.	-7.6%
Cc1c(C(=O)NCc2ccc3c(c2)OCO3)oc2ccc(S(=O)(=O)N3CCCCCC3)cc12	16.9%	-4.3%	-6.2	-11.8%
Cc1ccc(-n2c(SCC(=O)c3c(N)n(C4CC4)c(=O)[nH]c3=O)nnc2N2CCOCC2)cc1	.	-2.5%	.	0.6%
COc1ccc(C2SCCN2C(=S)Nc2ccc(F)cc2)cc1 (stereo not given)	-4.8%	-0.4%	1.2	9.4%
COc1cnc(-c2ccccn2)nc1Sc1ccc(F)cc1	?	6.2%	0.5	0.3%
CC1(C)CC(NS(=O)(=O)c2ccc(S(=O)(=O)N3CCOCC3)cc2)CCO1 (stereo not given)	2.3%	?	-12.3	-0.4%
CCOC(=O)C1=C(c2ccccc2)c2ccccc2N(S(=O)(=O)C(F)(F)F)C1C(=O)OCC (stereo not given)	.	-1.8%	.	-2.6%
COCCN(CCOC)S(=O)(=O)c1ccc(C(=O)Nc2c(C)n(C)n(-c3ccccc3)c2=O)cc1	-0.2%	?	1.4	-0.4%
SMILES	miR-21 reporter	Rango complex inh	GLA inh pH 4.5	Rango dissoc inh
CCC(C)N(NC(C)=O)c1nc(Cl)nc(NC(C)(C)C)n1 (stereo not given)	0.3%	?	8.7	12.3%
CN(CC(=O)Nc1cccc(F)c1)C(=O)C1CSC2(C)CCC(=O)N12 (stereo not given)	.	6.1%	.	5.7%
COc1ccccc1N(C)S(=O)(=O)c1ccc(C(=O)NC(C)c2ccccc2)cc1 (stereo not given)	7.6%	?	-17.8	-15.3%
c1ccc(OCc2nn3c(-c4cccnc4)nnc3s2)cc1	-11.6%	-1.3%	-12.9	-0.1%
Cc1cc(C(=O)NNC(=O)Nc2ccc(Cl)cc2)no1	0.4%	-3.4%	-0.1	7.7%
CC(C)COc1ccccc1C(=O)NC(CO)C(=O)O (stereo not given)	0.5%	-6.6%	1.4	-1.2%
COC(=O)COc1cc2ccccc2cc1C(=O)Nc1ccccc1	-1.0%	-0.3%	0.8	-14.2%
S=C(NCc1ccc(Cl)cc1)Nc1ccccc1Cl	-5.1%	0.1%	-0.1	9.3%
CN(C(=O)COC(=O)c1n[nH]c2ccccc12)c1ccccc1	-30.8%	3.5%	0.1	15.0%
CNC(=O)c1c(NC(=O)C(C)C)sc2c1CCC2	5.8%	-3.8%	-0.7	-11.5%

High-throughput results from PubChem BioAssay.
